# RE007 growth inh: less growth of the S. pombe RE007 Vpr strain; S. pombe RE007 Vpr strain, BacTiter-Glo ATP luminescence, 24 h; control for the full effect not named in the record; AID 651644; Potency, µM (top dose mostly 92.2 µM), for the others: top-dose activity change, negative = less growth; 0.21% of 360,000 active; active = well fitted falling curve with a large enough effect; inconclusive = small, poorly fitted or top-dose-only effect; inactive = no such curve, though single readings can be large or run the other way;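 also: % is scaled to controls: 0 for no effect and ±100 for the full control effect; nearly all actives have a fitted effect of over 50% in size; the assay follows cell death caused by Vpr and the record does not say whether a fall means rescue or toxicity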
#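 Fission yeast strain RE007, carrying one chromosomally integrated HIV-1 vpr copy, was seeded at OD 0.01 in PMG+AL medium with 23 nL pinned compound. After 24 h at 30 °C and 99% humidity, viability was read by BacTiter-Glo luminescence.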
# StopGo reporter: lowers the luciferase signal of an FMDV 2A StopGo reporter. human cells with a luciferase reporter of 2A StopGo recoding; control for the full effect not named in the record. Potency, µM (doses to about 57.9 µM), for inactives: at the top dose signal change, negative = less light. 1.2% of 410,000 active. AID 1159524; active = well fitted falling curve with a large enough effect; inconclusive = small, poorly fitted or top-dose-only effect; inactive = no such curve, though single readings can be large or run the other way; tested in HEK293T cells; also: % is scaled to controls: 0 for no effect and ±100 for the full control effect; nearly all actives have a fitted effect of over 45% in size; luciferase light after 4 h
# SARS PLpro yeast: SARS-CoV PLP inhibition in yeast; Potency, µM (series often up to 32.9 µM), for inactives: at the top dose activity, positive = growth rescue; 0.19% of 330,000 active; S. cerevisiae expressing SARS-CoV PLpro, growth rescue; control for the full effect not named in the record; active means well fitted rising curve with a large enough effect; inconclusive means small, poorly fitted or top-dose-only effect; inactive means no such curve, though single readings can be large or run the other way; also: 0% is about no effect; nearly all actives have a fitted effect of over 55% in size; growth read by luminescence after 48 h
# Starred values were filed as active, the others as inactive; ? = inconclusive; [ ] = dose if it differs, or a comment. Potency is read from the fitted curve at half-maximal effect. A portion of the library. The share of hits here may be higher or lower than overall.
SMILES,RE007 growth inh,StopGo reporter,SARS PLpro yeast
CC(OC(=O)[C@@H](NC(=O)c1ccco1)C(C)C)C(=O)Nc1ncc(Cl)cc1Cl (stereo partly drawn),-25%,-14%,-3%
C[C@H](CO)N1C[C@H](C)[C@H](CN(C)Cc2ccccc2)Oc2ccc(NC(=O)Nc3ccc(F)cc3)cc2C1=O,0%,0%,-46%
O=C(Nc1ccccc1)c1nc[nH]c1C(=O)NCc1ccccc1,0%,-15%,-4%
COc1ccc(C(=O)OCC(=O)NC(=O)NC2CCCC2)cc1OC,?,-20%,14%
COc1cc(S(=O)(=O)Nc2ccc3nc(C)sc3c2)ccc1NC(C)=O,-14%,6%,-3%
O=C(NNC(=O)c1cc(F)c(F)cc1Cl)c1ccc(NS(=O)(=O)c2cccs2)cc1,0%,3%,-3%
CC(=O)c1ccc2c(c1)C1C=CCC1C(c1cc3c(cc1Br)OCO3)N2 (stereo not drawn),4%,?,3%
Cc1ccc(NC(=O)COC(=O)C2CC3CCCC(C2)C3=O)c([N+](=O)[O-])c1 (stereo not drawn),-5%,-15%,2%
CCOc1cc(N2CCOCC2)c(OCC)cc1NC(=O)C1=COCCO1,-4%,-1%,6%
COc1ccc([C@H]2CC(=O)C=C(c3ccc4c5c(cccc35)CC4)C2)cc1,-7%,1%,3%
CC(=O)N[C@@H](Cc1c[nH]c2ccccc12)C(=O)OCC(=O)Nc1ccc(Cl)c(S(=O)(=O)N(C)C)c1,10%,-18%,-1%
CN(C)C(CNC(=O)c1ccc(OCc2cn3ccccc3n2)cc1)c1ccco1 (stereo not drawn),-16%,29%,-12%
CCOC(=O)C1CCN(C(=S)Nc2ccc(C)cc2)CC1,-12%,19%,3%
Cc1ccc(S(=O)(=O)N2[C@@H](c3ccccc3F)C(C(=O)O)=CC[C@H]2c2cccc(C)c2)cc1,-12%,16%,-1%
O=C(COC(=O)c1ccc(F)cc1Cl)Nc1cccc(S(=O)(=O)N2CCOCC2)c1,-6%,-21%,-3%
Cc1cccc(C(=O)NCC(=O)N2CCN(S(=O)(=O)c3ccc4c(c3)OCCO4)CC2)c1,0%,-7%,2%
CN(C)CCCNc1oc(-c2ccccc2Cl)nc1S(=O)(=O)c1ccccc1,-12%,11%,-5%
O=C(N/N=C/c1cn(-c2ccccc2)nc1-c1cccnc1)c1cccnc1,3%,-15%,3%
O=C(COc1ccc(-c2ccccc2)cc1)Nc1cccnc1,-23%,-16%,3%
CC(C)CC1Nc2ncnc(N3CCCCC3)c2N(Cc2ccc(Br)cc2)C1=O (stereo not drawn),-2%,-28%,-14%
COc1ccc(CNC(=O)COC(=O)c2ccc(C)c(S(=O)(=O)N3CCOCC3)c2)cc1OC,6%,?,-7%
O=C1C=C(c2ccc(Cl)c(C(F)(F)F)c2)C[C@@H](c2ccc3c(c2)OCO3)C1,-6%,4%,5%
CCN1CCN(c2ccc(Cl)cc2NC(=O)c2ccc(-n3nc(C)cc3C)cc2)CC1,1%,-24%,-1%
CC(=O)Nc1ccc(NC(=O)C(C)Oc2ccccc2C(=O)NCc2ccccc2)cc1 (stereo not drawn),1%,-21%,1%
CC[C@]12c3[nH]c4ccccc4c3CCN1C(=O)C(CC(=O)NCCC1=CCCCC1)C[C@@H]2C(=O)N1CCN(C(=O)c2ccco2)CC1 (stereo partly drawn),-9%,-6%,-3%
C=CCNC(=O)c1n[nH]c2c1CC(C(C)(C)CC)CC2 (stereo not drawn),-14%,-13%,-6%
CC(C)C[C@@]12C(=O)N(c3cccc(F)c3)C(=O)N1[C@H](c1ccc(Br)cc1)[C@@H]1C(=O)N(C(C)(C)C)C(=O)[C@@H]12,2%,2%,-1%
CC(=O)c1cccc(NC(=O)C(CC(C)C)NC(=O)C2CCCCC2)c1 (stereo not drawn),5%,10%,-2%
Cc1[nH]c(SCC(=O)Nc2cc(S(C)(=O)=O)ccc2Cl)nc1Cc1ccccc1,2%,-14%,1%
CCCCCCSc1ccc([C@@H]2[C@@H]3C(=O)N(CC)C(=O)[C@@H]3[C@]3(C(=O)OC)CCCCN23)cc1OC,-10%,-29%,-1%
CCCCOc1ccc(C(=O)NCC(=O)NCCOc2ccccc2OC)cc1,4%,-12%,3%[6.58 µM]
Cc1ccc(/C=N/NC(=O)CNC(=O)c2ccc(S(=O)(=O)N(C)C)cc2)o1,-2%,-2%,3%
C[C@@H]1CN([C@@H](C)CO)C(=O)c2cc(NC(=O)CCC(F)(F)F)ccc2O[C@H]1CN(C)Cc1ccc(Cl)c(Cl)c1,20%,?,7%
COC(=O)[C@H](Cc1ccccc1)NC(=O)Cn1cnc(C(=O)Nc2ccc(C)c(C)c2)n1,-18%,-9%,-3%
CC(C)(C)c1ccc(C(=O)NC(=O)CSc2n[nH]c(N)n2)cc1,2%,2%,-2%
COc1cc(-n2c(=O)c3ccccc3n(Cc3cccc(F)c3)c2=O)cc(OC)c1OC,17%,-13%,-1%
CCC(CO)Oc1cc(NCc2ccc(C)c(C)c2)c2ncn(C(C)C)c2c1 (stereo not drawn),?,-11%,10%
Cc1ccc(-n2c(=O)c3ccccc3n(CC(=O)C(C)(C)C)c2=O)cc1,-3%,-14%,3%
O=C(NN=C1CCCCC1)Nc1ccccc1Cl,-11%,19%,6%
CN(CC(=O)Nc1ccc(F)cc1)CC(=O)NC1CCCCC1,23%,-12%,15%

# An excerpt from above in order of molecular weight, low to high:
SMILES,RE007 growth inh,StopGo reporter,SARS PLpro yeast
O=C(NN=C1CCCCC1)Nc1ccccc1Cl,-11%,19%,6%
C=CCNC(=O)c1n[nH]c2c1CC(C(C)(C)CC)CC2 (stereo not drawn),-14%,-13%,-6%
O=C(COc1ccc(-c2ccccc2)cc1)Nc1cccnc1,-23%,-16%,3%
CN(CC(=O)Nc1ccc(F)cc1)CC(=O)NC1CCCCC1,23%,-12%,15%
CC(C)(C)c1ccc(C(=O)NC(=O)CSc2n[nH]c(N)n2)cc1,2%,2%,-2%
Cc1ccc(-n2c(=O)c3ccccc3n(CC(=O)C(C)(C)C)c2=O)cc1,-3%,-14%,3%
CC(=O)c1cccc(NC(=O)C(CC(C)C)NC(=O)C2CCCCC2)c1 (stereo not drawn),5%,10%,-2%
CCC(CO)Oc1cc(NCc2ccc(C)c(C)c2)c2ncn(C(C)C)c2c1 (stereo not drawn),?,-11%,10%
Cc1ccc(/C=N/NC(=O)CNC(=O)c2ccc(S(=O)(=O)N(C)C)cc2)o1,-2%,-2%,3%
O=C1C=C(c2ccc(Cl)c(C(F)(F)F)c2)C[C@@H](c2ccc3c(c2)OCO3)C1,-6%,4%,5%
CCCCOc1ccc(C(=O)NCC(=O)NCCOc2ccccc2OC)cc1,4%,-12%,3%[6.58 µM]
CN(C)CCCNc1oc(-c2ccccc2Cl)nc1S(=O)(=O)c1ccccc1,-12%,11%,-5%
CC(=O)Nc1ccc(NC(=O)C(C)Oc2ccccc2C(=O)NCc2ccccc2)cc1 (stereo not drawn),1%,-21%,1%
COC(=O)[C@H](Cc1ccccc1)NC(=O)Cn1cnc(C(=O)Nc2ccc(C)c(C)c2)n1,-18%,-9%,-3%
COc1cc(-n2c(=O)c3ccccc3n(Cc3cccc(F)c3)c2=O)cc(OC)c1OC,17%,-13%,-1%
CCN1CCN(c2ccc(Cl)cc2NC(=O)c2ccc(-n3nc(C)cc3C)cc2)CC1,1%,-24%,-1%
Cc1[nH]c(SCC(=O)Nc2cc(S(C)(=O)=O)ccc2Cl)nc1Cc1ccccc1,2%,-14%,1%
O=C(COC(=O)c1ccc(F)cc1Cl)Nc1cccc(S(=O)(=O)N2CCOCC2)c1,-6%,-21%,-3%
CC(C)CC1Nc2ncnc(N3CCCCC3)c2N(Cc2ccc(Br)cc2)C1=O (stereo not drawn),-2%,-28%,-14%
Cc1cccc(C(=O)NCC(=O)N2CCN(S(=O)(=O)c3ccc4c(c3)OCCO4)CC2)c1,0%,-7%,2%
CC(C)C[C@@]12C(=O)N(c3cccc(F)c3)C(=O)N1[C@H](c1ccc(Br)cc1)[C@@H]1C(=O)N(C(C)(C)C)C(=O)[C@@H]12,2%,2%,-1%
C[C@@H]1CN([C@@H](C)CO)C(=O)c2cc(NC(=O)CCC(F)(F)F)ccc2O[C@H]1CN(C)Cc1ccc(Cl)c(Cl)c1,20%,?,7%
CC[C@]12c3[nH]c4ccccc4c3CCN1C(=O)C(CC(=O)NCCC1=CCCCC1)C[C@@H]2C(=O)N1CCN(C(=O)c2ccco2)CC1 (stereo partly drawn),-9%,-6%,-3%

# Next structures
SMILES,RE007 growth inh,StopGo reporter,SARS PLpro yeast
CCCn1c(NC(=O)CCNC(=O)c2ccccc2Cl)nc2ccccc21,13%,?,-17%
O=C(NNC(=O)c1cncc(Br)c1)c1ccncc1,-5%,1%,-4%
COc1cc2c(C(F)(F)F)c(-c3ccsc3)oc(=O)c2cc1OC,-23%,0%,-2%
Cc1cc(=O)oc2cc(OCC(=O)N3CC(=O)Nc4ccccc43)c(Cl)cc12,5%,-5%,5%
CCn1c(SCC(=O)N/N=C/c2c[nH]c3ccccc23)nnc1-c1ccc(C)cc1,-4%,?,7%
Cc1ccc(N2CCN(/N=C/c3ccncc3)CC2)cc1,-11%,0%,0%
CCOc1ccccc1NC(=O)CSc1nnc2ccc(-c3ccncc3)nn12,2%,29%,0%
CC12CCC(=O)N1C(C(=O)NCCN1C(=O)S/C(=C\c3ccccc3Cl)C1=O)CS2 (stereo not drawn),28%,-24%,-7%
COc1ccc(COC(=O)NC(C(=O)O)c2ccccc2)cc1 (stereo not drawn),1%,-3%,2%
O=C(COC(=O)C1CCN(C(=O)c2ccc(Cl)cc2)CC1)NC1CCS(=O)(=O)C1 (stereo not drawn),2%,-11%,5%
CC1Cc2ccccc2N1C(=O)COC(=O)c1n[nH]c(=O)c2ccccc12 (stereo not drawn),-13%,-21%,7%
O=C(NCCC(=O)N1O[C@@H]2C=C[C@H]1C2)OCC1c2ccccc2-c2ccccc21,-7%,-15%,-6%
CCCn1c(N)c(C(=O)CN(C)CC(=O)Nc2c(Cl)cccc2Cl)c(=O)[nH]c1=O,12%,0%,1%
COc1ccc(C(CNC(=O)COc2ccccc2C)N2CCCCC2)cc1 (stereo not drawn),14%,-18%,-1%
COC(=O)[C@H](C)N(Cc1ccc(Cl)c(Cl)c1)S(=O)(=O)CCNC1CCCC1,-8%,-19%,4%
CCOc1cc(N2CCOCC2)c(OCC)cc1NC(=O)CN1CCSC1=O,-2%,-24%,-8%
Cc1ccc(N/C=C/C(=O)c2cccs2)cc1,1%,-51%,-1%
O=C(NC(=S)N1CCCC(O)C1)c1ccco1 (stereo not drawn),13%,2%,3%
COc1ccc(-c2nn(Cc3ccccc3)cc2C(=O)N2CCN(c3ncccn3)CC2)cc1,-18%,33%[activator],-1%
Cc1occc1C(=O)NNC(=O)Nc1ccc([N+](=O)[O-])cc1,5%,-2%,0%
CCN1C(=O)[C@H]2[C@H]3CN=C(SCc4ccc(C#N)cc4)N3[C@@](CC)(C(=O)OC)[C@H]2C1=O,-15%,-6%,-5%
Cc1cc(OCC(=O)OCC(=O)NCCN2C(=O)CSC2=O)ccc1Cl,19%,-10%,3%
Cc1cccc(NC(=O)c2nc[nH]c2C(=O)N2CCN(C(=O)OC(C)(C)C)CC2)c1,10%,-23%,-1%
N#Cc1ccc(C2=CC(=O)C[C@H](c3ccc(Cl)cc3)C2)cc1,-29%,-19%,6%
COC(=O)C1=C(c2ccc(C(C)=O)cc2)C[C@@H]2CC[C@H]1N2C(=O)NC1CC1,7%,-9%,0%
O=C(CN1C(=O)NC2(CCCCCC2)C1=O)Nc1cccc(F)c1,-6%,-14%,0%
CN(CCOc1ccccc1)S(=O)(=O)c1ccccc1C#N,3%,14%,8%
Cc1cc(C(=O)CN2C(=O)C(=O)N(C3CCCC3)C2=O)c(C)n1CCc1ccc(F)cc1,-6%,?,-7%
COc1ccc(Cl)cc1NC(=O)CN(C)C(=O)c1sc2ccccc2c1Cl,8%,-15%,1%
CC[C@]12c3[nH]c4ccc(Cl)cc4c3CCN1C(=O)[C@@H](CC(=O)NCCCN(C)C)C[C@@H]2C(=O)N1CCN(C(=O)C2CC2)CC1,-3%,-15%,-23%
C[C@@]12C(=O)Nc3ccc(Cl)cc3C(=O)N1[C@H]1c3ccccc3OC[C@@H]1[C@@H]2c1ccccc1,-6%,0%,-1%
Oc1ccc(C[C@H]2CNCCN2CC2CCCCC2)cc1,3%,-13%,1%

# Retrieved one by one from the list above:
SMILES,RE007 growth inh,StopGo reporter,SARS PLpro yeast
C[C@@]12C(=O)Nc3ccc(Cl)cc3C(=O)N1[C@H]1c3ccccc3OC[C@@H]1[C@@H]2c1ccccc1,-6%,0%,-1%
CC[C@]12c3[nH]c4ccc(Cl)cc4c3CCN1C(=O)[C@@H](CC(=O)NCCCN(C)C)C[C@@H]2C(=O)N1CCN(C(=O)C2CC2)CC1,-3%,-15%,-23%

# High-throughput results: PubChem, National Center for Advancing Translational Sciences (NCATS)
